Mtb growth – Mycobacterium tuberculosis H37Rv growth inhibition, cell based, confirmatory dose response (AID 1949); most inactive calls were filed without a number and no value below 0 was filed; actives 1.6% (n = 100,000); one-dose inhibition, % at 10 µg/mL; IC50 in µg/mL for titrated hits;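 active = confirmed in a dose series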;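 note: bacteria grown 7 days with compound before Alamar blue readout; 0% = untreated bacteria and 100% = reference antibiotic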
Active calls of the source: *; i = inactive. This is a subset; the hit share may differ from the screen's.

Start of the listing, in advance (3 entries):
Molecule,Mtb growth
CCn1c(CNC(=O)c2ccc(OC)c(OC)c2)nnc1SCC(=O)Nc1ccc(Br)cc1C(C)C,i
CCCCNc1ccc([N+](=O)[O-])cc1C(N)=O,i
CCOc1ccccc1-c1nc(-c2ccc(Cl)cc2)no1,i

This part in full, repeating the preview:
Molecule,Mtb growth
CCn1c(CNC(=O)c2ccc(OC)c(OC)c2)nnc1SCC(=O)Nc1ccc(Br)cc1C(C)C,i
CCCCNc1ccc([N+](=O)[O-])cc1C(N)=O,i
CCOc1ccccc1-c1nc(-c2ccc(Cl)cc2)no1,i
O=C(CS(=O)(=O)Cc1ccccc1)NC1CCCCCC1,i
COC(=O)C1=CN(Cc2ccccc2)C=C(C(=O)OC)C1c1ccc(C(F)(F)F)cc1,8%
O=c1c2ccccc2c2ccccc2c(=O)n1-c1ccccc1,8%
COc1cccc(NC(=O)Cn2c(-c3cncs3)nc3ccccc32)c1,4%
Cc1ccc(OCC(=O)Nc2ccc(S(=O)(=O)N3CCOCC3)cc2)c(C)c1,2%
COc1ccc(-c2cc(C(F)F)n3ncc(C(=O)NCCCn4ccnc4)c3n2)cc1,9µg/mL*
COc1ccccc1NC(=O)CCCc1nc(-c2ccc(OC)c(OC)c2)no1,i
NC(=O)c1c(-c2ccc(Cl)cc2Cl)csc1NC(=O)c1csc2c1CCCC2,i
CCOCCCNC(=O)c1cccc(Cl)c1,i
CCCCC1CCC(C(=O)Nc2c(C)n(C)n(-c3ccccc3)c2=O)CC1 (stereo not given),i
CCCNC(=O)c1nn2c(C(F)(F)F)cc(-c3cccs3)nc2c1Br,1%
CCc1ccccc1NC(=O)CN(C)S(=O)(=O)c1c(C)cc(C)cc1C,8%

Molecule,Mtb growth
Cc1csnc1NC(=O)c1c(N)nc2c(c1C(F)(F)F)OC1=C(CCC1)O2,1%
CCOC(=O)c1[nH]c(C)c(/C(O)=C2\C(=O)C(=O)N(CCCN(CC)CC)C2c2ccc(C)cc2)c1C (stereo not given),i
COc1ccc([N+](=O)[O-])cc1NC(=O)c1ccc(N(Cc2ccccc2C)S(C)(=O)=O)cc1,i
O=C(c1cnsn1)N1CCN(c2ccccc2)CC1,i
Cc1ccc(NC(=O)Nc2nnc(-c3ccc(C)c(C)c3)s2)cc1C,1%
Cc1ccccc1NC(=O)NCCc1c[nH]c2ccccc12,i
O=C(Cc1ccccc1)Nc1cc2nn(-c3ccccc3)nc2cc1Cl,i
O=C(COc1ccc2c3c(c(=O)oc2c1)CCCC3)c1ccc(N2CCCC2)cc1,i
COc1ccc(C(=O)O)cc1NC(=S)NC(=O)c1ccc(-c2ccc(Cl)cc2)o1,i
Cc1cc(-c2ccc(NC(=O)C3CCCC3)c(C)c2)ccc1NC(=O)C1CCCC1,i
CCC(=O)Nc1c(S(=O)(=O)c2ccccc2)c2nc3ccccc3nc2n1C1CCCCC1,i
CCOC(=O)C1=CN(C(C)C)C=C(C(=O)OCC)C1c1cccs1,i
Cc1nnc(SCc2cccc([N+](=O)[O-])c2)s1,i
CCn1nnc(NC(=O)c2cc3ccccc3o2)n1,i
COc1ccc(OC)c(N(CC(=O)NC2CCCCCC2)S(=O)(=O)c2ccc(C)cc2)c1,0%

Molecule,Mtb growth
COc1cc(NC(=O)c2ccccc2)c(OC)cc1NC(=O)CCC1CCCCC1,i
O=c1c2c(nc3cc(-c4ccc(F)cc4)[nH]n13)CCS2,1%
CCOc1ccccc1C(=S)NCCc1ccccc1,i
CCOc1ccccc1N1CCN(C(=O)c2cc(-c3ccccc3Cl)nc3ccccc23)CC1,i
O=C(CCSc1ccccc1)Nc1nc2ccccc2s1,2%
COc1ccc(NC(=O)C(Cc2ccccc2)N2C(=O)c3ccccc3C2=O)cc1Cl (stereo not given),i
Cc1[nH]c2ccccc2c1CCNC(=O)C1CCCCC1,i
COc1ccc(C(=O)NC(CCSC)C(=O)O)cc1OC (stereo not given),1%
CCc1ccc(NC(=O)CN2C(=O)c3cccc4cccc2c34)cc1,1%
COc1cccc(N(CC(=O)Nc2ccc(Cl)cc2C)S(=O)(=O)c2ccc(C)cc2)c1,i
CCC(=O)Nc1ccc(-c2nnc(SCC(=O)Nc3ccc(Br)cc3F)n2C)cc1,i
CC(C)c1ccccc1NC(=O)CCOc1ccccc1,i
Cc1ccc(C(=O)CC2(O)C(=O)Nc3ccccc32)s1 (stereo not given),i
COc1ccc(-c2cc3ccccc3oc2=O)cc1NC(=O)c1cccnc1,i
COc1cc(CNC2CCCC2)ccc1OCC(N)=O,i

Among those listed so far, these have a nitro group on carbon.
Molecule,Mtb growth
CCCCNc1ccc([N+](=O)[O-])cc1C(N)=O,i
COc1ccc([N+](=O)[O-])cc1NC(=O)c1ccc(N(Cc2ccccc2C)S(C)(=O)=O)cc1,i
Cc1nnc(SCc2cccc([N+](=O)[O-])c2)s1,i

Next results follow:
Molecule,Mtb growth
Clc1nc(Nc2ccccc2)nc(Nc2ccccc2)n1,0%
Cc1nc2nc(-c3ccccc3)nn2c(C)c1Cl,i
O=C(c1cc(-c2ccc(Cl)s2)nc2ccccc12)N1CCN(c2ncccn2)CC1,i
O=C(CSCc1nc2ccccc2c(=O)n1-c1cccc(C(F)(F)F)c1)Nc1ccccc1,i
CCc1cc2c(=O)c(-c3ccc4c(c3)OCCO4)coc2cc1OC(=O)c1ccco1,i
COc1cc(NC(=S)N2CCN(c3ncccn3)CC2)c(OC)cc1Cl,1%
Cc1ccc(-n2c(COc3c(C)cccc3C)nnc2SCc2nc3ccccc3c(=O)[nH]2)cc1,4%
Cc1nc(NC(=S)NC(=O)COc2ccccc2Cl)ccc1Br,i
O=S(=O)(c1ccc(F)cc1)c1ccc(Cl)cc1,i
Cc1ccc(OCCCN2CCCCC2)c(Cl)c1,i
CCCS(=O)(=O)c1nc(S(=O)(=O)c2ccc(C)cc2)c(NCCCN2CCOCC2)s1,i
COC(=O)c1sccc1NC(=O)CSc1nnnn1-c1ccccc1C,i
O=C(COc1cc(Cl)c(Cl)cc1Cl)NC1=NCCS1,12%
O=C(O)c1cccnc1SC1CC(=O)N(c2ccccc2)C1=O (stereo not given),i
CCC(=O)NC(=S)Nc1cccc([N+](=O)[O-])c1C,6%

6 records picked at random from those above:
Molecule,Mtb growth
COc1ccc(-c2cc3ccccc3oc2=O)cc1NC(=O)c1cccnc1,i
Cc1cc(-c2ccc(NC(=O)C3CCCC3)c(C)c2)ccc1NC(=O)C1CCCC1,i
Cc1ccccc1NC(=O)NCCc1c[nH]c2ccccc12,i
CCn1c(CNC(=O)c2ccc(OC)c(OC)c2)nnc1SCC(=O)Nc1ccc(Br)cc1C(C)C,i
COc1cccc(NC(=O)Cn2c(-c3cncs3)nc3ccccc32)c1,4%
O=C(Cc1ccccc1)Nc1cc2nn(-c3ccccc3)nc2cc1Cl,i

Other structures:
Compound	Mtb growth
COc1ccc(OC)c(S(=O)(=O)Nc2cccc(Cl)c2C)c1	4%
O=C(c1cccc(COc2ccc(Cl)cc2Cl)c1)N1CCN(c2ccccn2)CC1	i
C#CCOc1c(Br)cc(C2NC(=S)NC(C)=C2C(=O)NCc2ccccc2)cc1OCC (stereo not given)	i
COc1ccccc1NC(=O)c1cn(-c2ccccc2)nc1-c1cccc(Cl)c1	i
O=C(CC12CC3CC(CC(C3)C1)C2)Nc1nncs1	3%
COc1cc(OC)c(NC(=O)c2ccco2)cc1Cl	i
Cc1cc(-c2cccc(Br)c2)c(C#N)c(N)n1	2%
O=C(CCN1C(=O)c2ccccc2C1=O)NC(c1ccccc1)C1CCCC1 (stereo not given)	i
Cc1cc(C)cc(OC(=O)CS(=O)c2ccc(C(F)(F)F)cc2[N+](=O)[O-])c1 (stereo not given)	2%
COc1cc(CNCc2ccc(OC)cc2OC)cc(OC)c1	i
COc1ccc(NC(=O)N2CCN(c3ccc([N+](=O)[O-])cc3)CC2)cc1OC	i
COc1ccc(C(=O)NCC(=O)NCC(=O)OCc2ccccc2)cc1	i

Compound	Mtb growth
CC(=O)OC1CCC2OC1CCC2OC(C)=O (stereo not given)	i
CC(C)(C)C(=O)NC(=S)Nc1ccc(Cl)cn1	i
O=C(c1cccc([N+](=O)[O-])c1)N1CCN(c2ccc(Cl)c(Cl)c2)CC1	3%
CCOc1ccc(NC(=S)Nc2cc(C)[nH]n2)cc1	i
CCCCC(=O)Nc1ccc(NC(=O)c2ccc(OCc3ccccc3)cc2)cc1OC	i
CCOC(=O)N1CCN(C(=O)C(C)N(c2ccc(Cl)cc2)S(C)(=O)=O)CC1 (stereo not given)	i
O=C(NCc1ccccn1)C(=O)Nc1ccc(Br)cc1	i
NC(=O)c1ccc(NCCc2ccccc2)c([N+](=O)[O-])c1	i
Cc1cccc(NC(=O)CN(c2ccccc2F)S(=O)(=O)c2ccccc2)c1C	i
CC(=O)N(Cc1ccccc1)Cc1cn(-c2ccccc2)nc1-c1ccc(C)cc1	50%
CC(=O)c1ccc(NC(=S)N2CCN(S(=O)(=O)c3ccc(F)cc3)CC2)cc1	i
O=C(NCc1ccco1)C1(c2ccc(I)cc2)CCCC1	i

Compound	Mtb growth
CN(c1cccc(NC(=O)Cc2ccccc2)c1)S(C)(=O)=O	i
COc1cc(OC)c(C(=O)Nc2ccc(Br)cc2F)cc1OC	i
C=CCNc1c2c(nc3ccccc13)CCC2	3%
CCN(CC)C(=O)c1ccc(NC(=O)c2cncc(Br)c2)cc1	i
COCCNC(=O)Cn1cc(C(=O)OC)c2ccccc21	i
COC(=O)c1c(-c2ccc(Cl)cc2)csc1NC(=O)c1ccco1	7%
CC1Cc2ccccc2N1C(=O)c1ccc2c(c1)nnn2C (stereo not given)	i
Cc1cc(C)cc(NC(=O)c2ccccc2OCC(=O)NC(C)(C)C)c1	4%
CS(=O)(=O)N(CC(=O)NCCSc1ccccn1)c1ccc(F)cc1	i
Cc1cc(C(=O)NCc2ccccc2F)cs1	i
O=C(O)C(Cc1ccccc1)N1C(=O)c2cc(Cl)c(Cl)cc2C1=O (stereo not given)	i
CCOc1ccc(-c2nc(C#N)c(N3CCN(C)CC3)o2)cc1	i

Compound	Mtb growth
Cc1ccc(NC(=O)C2CC(=O)OC23CCCCC3)cc1[N+](=O)[O-] (stereo not given)	i
Cc1cc(Br)cc(C)c1OCC(=O)Nc1ccc(S(=O)(=O)Nc2ncccn2)cc1	i
CCCCOc1ccc(C2NC(=O)NC(C)=C2C(=O)OCc2ccccc2)cc1 (stereo not given)	i
CCCCNC(=O)C1CC(=O)N(c2ccccc2)C1 (stereo not given)	i
COc1ccccc1-c1c(C)oc2cc(OCC(=O)OCc3ccccc3)ccc2c1=O	0.36µg/mL*
O=C(CSCc1c(Cl)cccc1Cl)N1CCOCC1	i
COc1cc(Cl)c(C=O)cc1OC	i
COc1ccc(N(CC(=O)Nc2ccc3c(c2)OCCO3)S(=O)(=O)c2ccc(F)cc2)cc1	i
CCOc1ccccc1Oc1c(C)oc2cc(OC(=O)C(C)C)ccc2c1=O	2%
N#C/C(=C\c1ccc(N2CCOCC2)cc1)c1nc2ccccc2s1	i
N#Cc1cc2ccc(Br)cc2cc1C#N	0%
COC(=O)c1c(NC(=S)Nc2ccccc2SC)sc(C(=O)N(C)C)c1C	i

Compound	Mtb growth
CCn1c(SCC(N)=O)nnc1-c1ccc(Cl)cc1	i
O=C(NC(=S)Nc1nc2ccc(Cl)cc2s1)c1ccco1	25%
CCN(CC)Cc1ccc(C(=O)O)cc1	i
COc1cc(C(=O)Nc2ccc3oc(-c4cc(I)ccc4Cl)nc3c2)cc(OC)c1OC	i
COc1cc2c(cc1NC(=O)C1CCC(=O)N1S(=O)(=O)c1ccc(C)cc1)oc1ccccc12 (stereo not given)	7%
Fc1ccc(N2CCN(Cc3ccc(Cl)c(Cl)c3)CC2)cc1	4%
CC(=O)c1ccc(NC(=O)c2cccc(NC(=O)C(C)C)c2)cc1	i
Nc1ccccc1C(=O)NC12CC3CC(CC(C3)C1)C2	i
COCCCNC(=O)C(C)N(c1cc(C)cc(C)c1)S(C)(=O)=O (stereo not given)	i
COC(=O)C1=C(C)NC(=S)NC1c1cccc2ccccc12 (stereo not given)	i
CC(C)(C)NS(=O)(=O)c1ccc(CCC(=O)O)cc1	i
COc1ccc(C)cc1NC(=O)CN(c1cc(Cl)ccc1OC)S(=O)(=O)c1ccc(C)cc1	i

Compound	Mtb growth
CCn1c(=O)[nH]c2cc(C(=O)Nc3ccccc3)ccc2c1=O	i
NC(=O)c1c(NC(=S)NC(=O)c2cccc([N+](=O)[O-])c2)sc2c1CCCC2	i
O=C(Nc1ccc(C(F)(F)F)cc1)Nc1cccc(F)c1	0.76µg/mL*
Cc1ccc2nc(SCC(=O)Nc3cccc(NC(=O)C45CC6CC(CC(C6)C4)C5)c3)[nH]c2c1	10%
N/C(Cc1ccc([N+](=O)[O-])cc1)=N\OS(=O)(=O)c1ccc(Cl)cc1	3%
CCCCC(=O)Nc1cccc(NC(=S)NC(=O)c2ccc(C)cc2Cl)c1	9%
Cc1cccc(NC(=O)Nc2ccccc2)n1	i
O=C1CC(NCC2CCCO2)C(=O)N1c1ccc(F)cc1 (stereo not given)	i
Cc1ccc(N(C(=O)c2ccc(C(C)(C)C)cc2)C2C=CS(=O)(=O)C2)cc1 (stereo not given)	i
C=CCn1c(SCC(=O)Nc2ccccc2)nc2sc3c(c2c1=O)CCC3	i
CC(C)(C)c1ccc(-c2nnc3sc(COc4ccc(F)cc4)nn23)cc1	5%
CCOc1ccc(-c2nnc(SCC)c3ccccc23)cc1	i

Compound	Mtb growth
CCCCOc1ccc(C(=O)N2CCOCC2)cc1	i
CCOc1ccccc1NC(=O)C(C)Oc1cc(C)cc(C)c1 (stereo not given)	i
CN1CCN(C(=O)c2ccc(C(=O)N3CCN(C)CC3)cc2)CC1	i
CC1=C(C(N)=O)C(c2ccco2)C(C#N)=C(SCC(N)=O)N1 (stereo not given)	i

Assay outcomes deposited in PubChem by Southern Research Institute.
